eIF4H inh: inhibitors of RNA binding by human eIF4H | Q15056 | 290,000 compounds, 0.94% hits | eIF4H fluorescence polarization binding assay | inhibition, % at 35 µM;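 active = 50% or more with normal probe brightness, or confirmed in later tests; about a fifth of its hits are not listed in these tables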;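 note: calls also rest on retests at 20 µM and on dose response follow-up; 0% = protein and probe with vehicle and 100% = probe without protein; strong numbers were not always called active; many hits fall short of the cut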
UUG fidelity: modulators of start codon recognition fidelity in yeast; S. cerevisiae UUG-firefly luciferase reporter, luminescence/redox ratio; activity score, % at 18.7 µM; 350,000 compounds, 0.13% hits; AID 602363;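 active = replicate mean at a twofold rise or more, about +100% in these data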;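 note: firefly luciferase made from a UUG start codon reports start codon fidelity; reporter light over untreated wells divided by growth signal over untreated wells; some hits fall short of that in this replicate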
PABP polyA inh: PABP-poly(A) binding inhibition; P11940; PABP-poly(A) RNA binding, fluorescence polarization; inhibition, % at 35 µM; 290,000 compounds, 1% hits; AID 2014;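 active = 50% or more with normal probe brightness, or confirmed in later tests; about a fifth of its hits are not listed in these tables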;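 note: calls also rest on retests at 20 µM and on dose response follow-up; controls were probe without protein and protein plus probe with vehicle; some compounds called inactive have numbers as strong as hits; many hits fall short of the cut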
Target sequence (P11940 whole entry, looked up): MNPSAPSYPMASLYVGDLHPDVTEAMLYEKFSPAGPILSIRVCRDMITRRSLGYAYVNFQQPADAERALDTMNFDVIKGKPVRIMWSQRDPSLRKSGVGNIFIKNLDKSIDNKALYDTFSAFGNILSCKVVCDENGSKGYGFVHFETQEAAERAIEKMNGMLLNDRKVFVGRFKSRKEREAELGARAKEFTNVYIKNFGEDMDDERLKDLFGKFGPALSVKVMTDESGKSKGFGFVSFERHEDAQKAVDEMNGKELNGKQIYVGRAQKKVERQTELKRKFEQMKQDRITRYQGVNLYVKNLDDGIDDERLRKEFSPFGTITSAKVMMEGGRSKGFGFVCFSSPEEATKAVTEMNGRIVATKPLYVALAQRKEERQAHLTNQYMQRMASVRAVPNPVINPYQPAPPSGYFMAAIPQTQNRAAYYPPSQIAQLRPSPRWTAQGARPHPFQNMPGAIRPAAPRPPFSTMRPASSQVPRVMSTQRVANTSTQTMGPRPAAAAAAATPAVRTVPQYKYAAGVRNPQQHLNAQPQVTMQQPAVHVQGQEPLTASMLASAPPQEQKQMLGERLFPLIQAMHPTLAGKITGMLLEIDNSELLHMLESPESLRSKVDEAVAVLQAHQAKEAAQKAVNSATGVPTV
MT1-MMP act inh: MT1-MMP (human) activation inhibition. GFP/RFP ratio change, % at 20 µM. HT1080 RFP-PRO-GFP cells, GFP/RFP ratio fluorescence, overnight; percent of plate control window, DMSO zero. P50281. 360,000 compounds, 0.061% hits;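 active = GFP/RFP ratio change of at least 30% with cell ATP level not reduced by more than half and red fluorescence within 50% of control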; note: strong numbers were not always called active
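Assay system: HT1080 cells carrying an RFP-PRO-GFP reporter | Dosing: Single dose of 20 µM compound, 1% DMSO final | Incubation: Cells overnight before dosing, compound overnight, 37 °C, 5% CO2 | Evaluation: GFP/RFP fluorescence ratio | Control set: DMSO and RFP-L50D-GFP cell wells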
HIV Env fusion: HIV envelope-mediated fusion inhibition | inhibition, % at 12.3 µM | 360,000 compounds, 1.1% hits | HeLa-JRFL Env/CEM21 cell fusion, luciferase;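 active = mean replicate inhibition score of at least 50 and every replicate individually at or above 50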;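 note: 0% = plate neutral controls and 100% = maraviroc near 300 nM; one replicate is shown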
CSC inhib: cancer stem cell inhibition; cancer stem cell-like cells viability, luminescence; inhibition, % at 7.5 µM; 300,000 compounds, 1.1% hits; AID 2717;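 active = mean at 75% or more and at least half the replicates too; tested in HMLE shEcad cells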;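 note: 0% = median of negative and 100% = median of positive control wells; the first replicate is given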
Rce1 inh: inhibitors of yeast Ras-converting enzyme | yeast membranes, quenched prenylated peptide cleavage fluorescence | calls only | 290,000 compounds, 0.27% hits | AID 2563;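 active = fall in fluorescence gain of 50% or more versus controls, with final raw signal at or below 3038400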;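 note: plate controls were neutral control wells for no effect and wells lacking membranes for full effect; tested at 10 µM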
MT1-MMP act inh RFP: second read-out of MT1-MMP act inh, no call of its own (marks repeat the call); RFP signal change, %; measured here: RFP expression control read;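 0 = vehicle wells; hits needed this value within 50% of zero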
Active calls of the source: *. Compounds as they come; about 2.9% have a hit in one of these screens.

For O=[N+]([O-])c1ccc2[nH]c(O)c(N=NC3CS(=O)(=O)CC3O)c2c1 (stereo unspecified) the results were eIF4H inh -10, UUG fidelity -7, PABP polyA inh -4, MT1-MMP act inh -12, HIV Env fusion 12, CSC inhib -14, Rce1 inh inactive and MT1-MMP act inh RFP 1.
Screening C[n+]1ccccc1COc1ccc(C(C)(C)C)cc1 returned eIF4H inh -7, PABP polyA inh -1, MT1-MMP act inh 0, HIV Env fusion 21, CSC inhib 3, Rce1 inh inactive and MT1-MMP act inh RFP -12.
`CC1CCN(CC(=O)Nc2ccccc2-c2ccccc2)CC1` gave eIF4H inh 0, UUG fidelity -12, PABP polyA inh -8, MT1-MMP act inh -6, CSC inhib 62, Rce1 inh inactive and MT1-MMP act inh RFP -4.
O=S1(=O)CCC(SCc2nc3sccn3c2Br)C1 (stereo unspecified) was read as eIF4H inh 3, UUG fidelity -17, PABP polyA inh 4, MT1-MMP act inh -1, CSC inhib -12, Rce1 inh inactive and MT1-MMP act inh RFP 6.
CCOC(=O)c1oc2ccc(S(=O)(=O)N3CCC(C)CC3)cc2c1C was read as eIF4H inh -5, PABP polyA inh -1, MT1-MMP act inh -2, CSC inhib -8, Rce1 inh inactive and MT1-MMP act inh RFP -6.
Cc1ccc(-c2c(C(=O)O)c(C(=O)O)c3n2CSC3)cc1 was read as eIF4H inh 2, UUG fidelity -4, PABP polyA inh -1, MT1-MMP act inh -1, HIV Env fusion 3, CSC inhib -9, Rce1 inh inactive and MT1-MMP act inh RFP 0.
`Cc1nc2ccc(NC(=O)COc3cccc(F)c3)cc2s1` gave eIF4H inh -4, PABP polyA inh -2, MT1-MMP act inh -1, HIV Env fusion -19, CSC inhib -8, Rce1 inh inactive and MT1-MMP act inh RFP 5.
COc1ccccc1CNC(=O)C(=O)NCC(c1ccco1)N1CCOCC1 (stereo unspecified) was read as eIF4H inh -11, UUG fidelity 0, PABP polyA inh -5, MT1-MMP act inh -4, HIV Env fusion -15, CSC inhib 4, Rce1 inh inactive and MT1-MMP act inh RFP -2.
`Oc1ccccc1N1CCN(C(c2ccccc2)c2ccccc2)CC1` gave eIF4H inh 22, UUG fidelity -15, PABP polyA inh -2, MT1-MMP act inh -1, HIV Env fusion -6, CSC inhib 32 and MT1-MMP act inh RFP -1.
Screening O=C(CCNS(=O)(=O)c1ccccc1F)N1CCN(Cc2ccccc2)CC1 returned UUG fidelity -17, MT1-MMP act inh 4, HIV Env fusion 24, CSC inhib -13, Rce1 inh inactive and MT1-MMP act inh RFP 0.
Screening c1csc(C2C3=C(Nc4ncnn42)c2ccccc2OC3)c1 (stereo unspecified) returned eIF4H inh 4, UUG fidelity -56, PABP polyA inh 18, MT1-MMP act inh -8, HIV Env fusion -31, CSC inhib 0, Rce1 inh inactive and MT1-MMP act inh RFP -1.
For O=c1cc(-c2ccc(O)cc2)oc2c(C3O[C@H](CO)[C@@H](O)[C@H](O)[C@H]3O)c(O)cc(O)c12 (stereo partly specified) the results were UUG fidelity 5, MT1-MMP act inh 5, HIV Env fusion -61, CSC inhib 3 and MT1-MMP act inh RFP 3.
`Cc1cccc(C(=O)NCC(=O)NC(C)c2ccc(-n3ccnc3)cc2)c1` (stereo unspecified) gave MT1-MMP act inh 0, HIV Env fusion -4, CSC inhib -9, Rce1 inh inactive and MT1-MMP act inh RFP 2.
`COc1ccc(NC(=O)CSc2nnc(Cc3cccn3C)n2-c2ccc(OC)cc2)cc1` gave eIF4H inh -21, UUG fidelity -8, PABP polyA inh -17, MT1-MMP act inh 5, HIV Env fusion -13, CSC inhib 0, Rce1 inh inactive and MT1-MMP act inh RFP 5.
For COC(=O)C(NC(=O)CCC(=O)NC(C(=O)OC)c1ccccc1)c1ccccc1 (stereo unspecified) the results were eIF4H inh 6, UUG fidelity 7, PABP polyA inh 8, MT1-MMP act inh -1, HIV Env fusion 1, CSC inhib -9, Rce1 inh inactive and MT1-MMP act inh RFP 4.
For C=CCNC(=O)c1onc(CSc2ccc(Cl)cc2)c1C(=O)O the results were eIF4H inh -4, UUG fidelity -16, PABP polyA inh -2, MT1-MMP act inh 10, HIV Env fusion -7, CSC inhib 37, Rce1 inh inactive and MT1-MMP act inh RFP 7.
CC(C)Cn1cc(C(=O)NC2CCN(Cc3ccccc3)CC2)c2c3ccccc3n(C)c2c1=O was read as eIF4H inh 0, PABP polyA inh -4, HIV Env fusion -65, CSC inhib -4 and Rce1 inh inactive.
Screening COc1cccc(C(=O)Nc2cccc(NC(=O)c3ccccc3Cl)c2)c1 returned eIF4H inh 5, UUG fidelity -15, PABP polyA inh 6, MT1-MMP act inh 2, HIV Env fusion 19, CSC inhib -2, Rce1 inh inactive and MT1-MMP act inh RFP -1.
For S=C(NCCN1CCOCC1)Nc1ccc(Cl)cc1Cl the results were eIF4H inh 0, UUG fidelity -25, PABP polyA inh 6, MT1-MMP act inh 1, HIV Env fusion -3, CSC inhib 2, Rce1 inh inactive and MT1-MMP act inh RFP 2.
CCOC(=O)NC(NC(=S)Nc1ccccc1OC)C(Cl)(Cl)Cl (stereo unspecified) was read as eIF4H inh -7, PABP polyA inh 17, MT1-MMP act inh 1, CSC inhib 9, Rce1 inh inactive and MT1-MMP act inh RFP -1.

Brought forward from above: three compounds, then new ones.
Screening COc1cccc(C(=O)Nc2cccc(NC(=O)c3ccccc3Cl)c2)c1 returned eIF4H inh 5, UUG fidelity -15, PABP polyA inh 6, MT1-MMP act inh 2, HIV Env fusion 19, CSC inhib -2, Rce1 inh inactive and MT1-MMP act inh RFP -1.
For S=C(NCCN1CCOCC1)Nc1ccc(Cl)cc1Cl the results were eIF4H inh 0, UUG fidelity -25, PABP polyA inh 6, MT1-MMP act inh 1, HIV Env fusion -3, CSC inhib 2, Rce1 inh inactive and MT1-MMP act inh RFP 2.
CCOC(=O)NC(NC(=S)Nc1ccccc1OC)C(Cl)(Cl)Cl (stereo unspecified) was read as eIF4H inh -7, PABP polyA inh 17, MT1-MMP act inh 1, CSC inhib 9, Rce1 inh inactive and MT1-MMP act inh RFP -1.
COCCNc1ncnc2c1ncn2[C@H]1CN(Cc2cccs2)C[C@@H](CO)O1 was read as UUG fidelity 5, MT1-MMP act inh -1, HIV Env fusion 2 and MT1-MMP act inh RFP 2.
CCOc1ccc(-n2c(O)c(/C=N/NC(=O)C3COc4ccccc4O3)c3ccccc3c2=O)cc1 (stereo unspecified) was read as eIF4H inh -2, UUG fidelity -3, PABP polyA inh 2, MT1-MMP act inh -1, HIV Env fusion -1, CSC inhib -10, Rce1 inh inactive and MT1-MMP act inh RFP 7.
`COc1ccc(CCC(=O)NCCc2ccc(Cl)cc2)cc1` gave eIF4H inh -10, UUG fidelity -16, PABP polyA inh -8, MT1-MMP act inh -3, HIV Env fusion -2, CSC inhib -20, Rce1 inh inactive and MT1-MMP act inh RFP -1.
`OCCn1c(SCCOc2ccccc2F)nc2ccccc21` gave eIF4H inh -8, UUG fidelity 6, PABP polyA inh 0, MT1-MMP act inh -8, CSC inhib 6, Rce1 inh inactive and MT1-MMP act inh RFP -4.
Screening O=C(COc1ccccc1[N+](=O)[O-])Nc1cc(Cl)ccc1C(=O)O returned eIF4H inh 10, PABP polyA inh 9, MT1-MMP act inh -1, HIV Env fusion 9, CSC inhib -3, Rce1 inh inactive and MT1-MMP act inh RFP 1.
`CC1CCN(S(=O)(=O)c2ccc(Cl)cc2)CC1` gave eIF4H inh 1, UUG fidelity -18, PABP polyA inh 6, MT1-MMP act inh -1, CSC inhib -7, Rce1 inh inactive and MT1-MMP act inh RFP -4.
For CCN(CC)S(=O)(=O)c1ccc(C(=O)Oc2cc(C)[nH]c(=O)c2[N+](=O)[O-])cc1 the results were eIF4H inh -8, PABP polyA inh -9, MT1-MMP act inh -2, HIV Env fusion 7, CSC inhib -13, Rce1 inh inactive and MT1-MMP act inh RFP 4.
Screening O=S(=O)(Nc1ncccn1)c1ccc(F)cc1 returned eIF4H inh -5, UUG fidelity -4, PABP polyA inh 3, MT1-MMP act inh -4, HIV Env fusion 2, CSC inhib 1, Rce1 inh inactive and MT1-MMP act inh RFP 2.
COc1ccc([C@H]2Cc3cc(O)cc(O)c3C(=O)O2)cc1O was read as UUG fidelity -41, MT1-MMP act inh 4, HIV Env fusion -187, CSC inhib -6 and MT1-MMP act inh RFP -2.
`CC(=O)N1CCC(O)(c2ccc3c(c2)OCO3)CC1` gave eIF4H inh -3, UUG fidelity -5, PABP polyA inh -4, MT1-MMP act inh -5, HIV Env fusion 11, CSC inhib -17, Rce1 inh inactive and MT1-MMP act inh RFP -2.
`COc1cccc(-c2nnc3n2N=C(c2cc(OC)ccc2OC)CS3)c1` gave eIF4H inh -2, UUG fidelity -17, PABP polyA inh -1, MT1-MMP act inh -17, HIV Env fusion -144, CSC inhib 9, Rce1 inh inactive and MT1-MMP act inh RFP -8.
For CCCn1c(N)c(C(=O)CSc2nnc(C3CC3)n2Cc2ccccc2)c(=O)n(C)c1=O the results were UUG fidelity -8, MT1-MMP act inh 2, CSC inhib -16 and MT1-MMP act inh RFP 3.
Screening COc1ccc(CC(=O)NC(C)c2ccc(S(N)(=O)=O)cc2)cc1S(=O)(=O)N1CCOCC1 (stereo unspecified) returned eIF4H inh -5, UUG fidelity 1, PABP polyA inh 10, MT1-MMP act inh -3, HIV Env fusion 8, CSC inhib -11, Rce1 inh inactive and MT1-MMP act inh RFP 5.
For Cn1c(-[n+]2c(-c3ccccc3)cc(-c3ccccc3)cc2-c2ccccc2)nc2c([N+](=O)[O-])cccc21 the results were eIF4H inh 0, UUG fidelity -2, PABP polyA inh 16, MT1-MMP act inh -6, HIV Env fusion 13, CSC inhib 0, Rce1 inh inactive and MT1-MMP act inh RFP -5.
CCN(CC)CC(=O)N1CCCC(N2CCN(c3cccc(C(F)(F)F)c3)CC2)C1 (stereo unspecified) was read as eIF4H inh -9, UUG fidelity -23, PABP polyA inh 14, MT1-MMP act inh 4, HIV Env fusion 5, CSC inhib 8, Rce1 inh inactive and MT1-MMP act inh RFP 6.
`CCOC(=O)c1cccnc1NC(=O)c1ccncc1` gave eIF4H inh -3, UUG fidelity -10, PABP polyA inh -10, MT1-MMP act inh 0, HIV Env fusion 14, CSC inhib -9, Rce1 inh inactive and MT1-MMP act inh RFP 7.
For CCc1ccc(S(=O)(=O)N2c3ccc(C)cc3C3CN(C)CCC32)cc1 (stereo unspecified) the results were UUG fidelity -12, MT1-MMP act inh 1, CSC inhib -30 and MT1-MMP act inh RFP -1.
COCCNC(=O)C1CCN(S(=O)(=O)N2CCC3(CC2)OCCO3)CC1 was read as eIF4H inh -8, UUG fidelity 14, PABP polyA inh -3, MT1-MMP act inh 2, CSC inhib -4, Rce1 inh inactive and MT1-MMP act inh RFP -5.
CCc1ccccc1-n1c(SCC(=O)Nc2ccc3c(c2)OCCO3)nc2[nH]ncc2c1=O was read as eIF4H inh 0, UUG fidelity -23, PABP polyA inh 2, MT1-MMP act inh -4, HIV Env fusion -56, CSC inhib 4, Rce1 inh inactive and MT1-MMP act inh RFP 4.
`CCCC(=O)N(c1ccc(OCC)cc1)C1C=CS(=O)(=O)C1` (stereo unspecified) gave eIF4H inh -2, UUG fidelity -14, PABP polyA inh -1, MT1-MMP act inh 3, CSC inhib -24, Rce1 inh inactive and MT1-MMP act inh RFP 0.
`O=C(Cn1cnc2cc([N+](=O)[O-])ccc2c1=O)NCCc1ccc(Cl)cc1` gave eIF4H inh 2, UUG fidelity -1, PABP polyA inh -6, MT1-MMP act inh -2, HIV Env fusion -2, CSC inhib -7, Rce1 inh inactive and MT1-MMP act inh RFP -6.
Screening O=C(Nc1cccc(S(=O)(=O)N2CCCC2)c1)c1cccc(OC(F)F)c1 returned MT1-MMP act inh 6, HIV Env fusion 4, CSC inhib -3, Rce1 inh inactive and MT1-MMP act inh RFP -7.
`CNS(=O)(=O)c1cc(C(=O)NCc2ccco2)ccc1Cl` gave eIF4H inh 0, UUG fidelity -7, PABP polyA inh 4, MT1-MMP act inh 3, CSC inhib 2, Rce1 inh inactive and MT1-MMP act inh RFP 3.
